# NPYLR7 ag = mosquito NPYLR7 agonism; HEK293T NPYLR7/Galpha15, GCaMP6s calcium fluorescence; activation, % at 10 µM; 270,000 compounds, 0.15% hits; AID 1259423; in the data active means activation above about 40%;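 further: 0% = vehicle and 100% = reference agonist at the receptor; some compounds past the cut are filed as inactive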
# NPYLR7 ag max-min = also measured in NPYLR7 ag; calls as there; activation, %; measured here: Max-Min RFU normalised activation; some inactives read as strong as hits;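 span of the calcium signal over five minutes; 0% = vehicle and 100% = native peptide agonist; compound fluorescence can raise it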
# The depositor's hits bear a star; & = joins results of further samples. A portion of the library; the hit share may differ from the screen's.
Compound | NPYLR7 ag | NPYLR7 ag max-min
COC(=O)Cn1cnc(S(=O)(=O)N2CCOCC2)c1 | 5 | 3
Cc1ccc(-c2nnc3ccc(SCC(=O)Nc4ccccc4C)nn23)cc1 | 13 | 19
COCCn1cc(C(=O)NCc2ccc(F)cc2)c2n[nH]c(=O)c-2c1 | 1 | -2
C=C(C)CC(Nc1ccccc1F)c1ccco1 (configuration not stated) | 2 | 1
Cc1cc(C(C)(C)C)cc(C)c1S(=O)(=O)N1CCC(n2nnc3c2CCCC3)CC1 | 2 | 2
CCc1ccccc1N1CC(C(=O)Nc2ccc(C)c(S(=O)(=O)N(C)C)c2)CC1=O (configuration not stated) | -1 | 21
O=C(Nc1c(Cl)cccc1C(F)(F)F)N[C@H](Cc1ccccc1)C(=O)N1CCC(C(=O)N2CCCCC2)CC1 | -11 | -5
CCOC(=O)CC1C(=O)NCCN1C(=O)C(C)(C)Oc1ccc(CCNC(=O)c2ccc(Cl)cc2)cc1 (configuration not stated) | -4 | -7
CCOc1ccc2c(c1)sc(=S)n2CN1CC(C)OC(C)C1 (configuration not stated) | -1 | -8
CCCCCCc1ccc(C(=O)N2CCSC2c2cccc(F)c2)cc1 (configuration not stated) | 6 | 15
COc1ccc(-c2cnc(C(O)c3ccccc3)[nH]2)cc1 (configuration not stated) | -2 | -5
Cc1ccc(CNC(=O)CN2CCCN(S(=O)(=O)c3ccc(F)cc3)CC2)cc1F | 4 | 3
COc1ccc(C(=O)NCc2ccnc(N3CCOCC3)c2)cc1 | 0 | -2
COC(=O)CCC(=O)N(Cc1ccc(F)cc1)Cc1nc2cc(Cl)ccc2o1 | 6 | 4
CCCOC(=O)c1ccc(NCN2C(=O)c3ccccc3C2=O)cc1 | -5 | -10
c1ccc(-c2cnc3cc4ccccc4cc3n2)cc1 | 21 | 11
CCOc1cc(C)c(S(=O)(=O)Nc2ccccn2)cc1C(C)C | -1 | -1
COCCn1cnc2cc(NC(=O)C3CCCCC3)cc(C(=O)N(C)Cc3ccc(F)cc3)c21 | 18 | 2
CC(C)(C)NN=Cc1cccs1 | 4 | 2
Cc1c(C)n2c3c(=O)n(C)c(=O)n(C)c3nc2n1-c1ccc(C(F)(F)F)cc1 | 2 | -1
O=C1NC(=O)C2C1C1c3ccccc3C2([N+](=O)[O-])c2ccccc21 (configuration not stated) | -17 | -21
N#CC1(C(=O)NNc2c(Cl)cc(Cl)cc2Cl)CCCC1 | 27 | 26
O=C(Cn1c(=O)oc2ccccc21)Nc1ccc(N2CCOCC2)cc1 | 7 | 4
COCc1c(Br)c(C)nc(OCC(=O)N/N=C\c2ccc(O)c(OC)c2)c1C#N | -7 | -15
Cc1cc(CC(C)NC(=O)c2csc(C)n2)n[nH]1 (configuration not stated) | 7 | 8
CC(C)CN(CC(=O)N(Cc1ccccc1)Cc1cccn1Cc1ccc(F)cc1)C(=O)Nc1cccc(C(F)(F)F)c1 | 17 | 23
Cc1ccc(NC(=O)c2cc3c(Cl)cccc3[nH]2)nc1 | 4 | 2
CCc1nc2ccc(C(=O)Nc3cccc(OCC(=O)N(C)C)c3)cn2c1N(C)Cc1cccs1 | -18 | -19
Cc1c(CN(C)Cc2nc(Cc3cccc(C(F)(F)F)c3)no2)[nH]c2ccccc12 | 0 | -5
CSCCOC(=O)C1=C(C)NC(=O)NC1c1ccc(Cl)c(Cl)c1 (configuration not stated) | -3 | -5
CC1(C)CC2=NN(c3ccccc3)P(=O)(N3CCCc4ccccc43)C2=C(N2CCCC2)C1 (configuration not stated) | 15 | 11
COc1ccc(C2CCCN2CCC(=O)Nc2ccc(C(N)=O)cc2)cc1 (configuration not stated) | 1 | 1
CC1CN(Cc2ccoc2)Cc2cc(Cl)ccc2O1 (configuration not stated) | 6 | 1
Cc1nc(C(=O)N2CSCC2C(=O)NCC(F)(F)F)nn1-c1ccccc1C(C)C (configuration not stated) | 2 | -2
Oc1ccc(C=C(c2nnnn2-c2ccccc2)c2nnnn2-c2ccccc2)cc1 | 0 | 10
CNC(=O)[C@@H]1C[C@H]2CN(C)C(=O)c3cccc(c32)N1C(=O)c1ncoc1-c1ccccc1 | 0 | 8
CCCn1c(-c2ccccc2C)nc2c(c(=O)c3ccccc3n2C)c1=O | -6 | -5
CNC(=O)c1ccc(Cn2ccnc2C2CCOC(C)(C)C2)cc1 (configuration not stated) | -1&1 | 4&0
CC(C)c1nc(C(=O)N2CCC(n3nccc3NC(=O)C3CCCC3)CC2)cs1 | -1&8 | -2&4
O=C(CN1CCN(C(=O)CN2CCN(c3ccccc3)CC2)CC1)Nc1cccc(F)c1 | -3 | -3
Brc1ccc(C2=Nc3ncnn3C(c3ccc4c(c3)OCO4)C2)cc1 (configuration not stated) | 8&4 | 7&0
CCOC(=O)N(C)c1c(CC)nc2ccc(C(=O)NCc3ccc(OC)cc3)cn12 | 21 | 17
O=C(O)CCC(=O)Nc1nc2ccccc2s1 | -28 | -27
O=c1c2nnn(-c3cccc(Cl)c3)c2ncn1Cc1ccc(F)cc1 | 8 | 11
Cc1cc2c(SCc3nc4ccccc4[nH]3)ncnc2s1 | -1 | -4
Cc1nc(SCC(N)=O)c2oc3ccccc3c2n1 | 4 | 0
Cc1nnnn1Cc1ccc(C(=O)N2CCCC(N)CC2)cc1 (configuration not stated) | 2 | 4
Cc1nc(NC(=O)CN2CCOC(c3ccc(F)cc3)C2)sc1C (configuration not stated) | 2 | -1
O=C(NCc1ccco1)c1sc2cc(F)ccc2c1Cl | 2 | -6
CCc1[nH]n(-c2ccc(F)cc2)c(=O)c1C1=C([n+]2ccccc2)C(=O)N(c2cccc(C)c2)C1=O | 9 | 6
CC(C)CNc1ncnc2c1nnn2C | 6 | 3
O=C1c2ccc(F)cc2C(=O)N1Cc1ccno1 | 0 | 19
Cn1c(N)c(C(=O)COC(=O)CCC(=O)c2cccs2)c(=O)n(C)c1=O | 8 | 9
CC(C)Nc1nc(Cl)nc(N2CCSCC2)n1 | -6 | -5
CCC(NC(=O)Cn1nnc2ccccc2c1=O)c1nc(C)c(C)s1 (configuration not stated) | 2 | -1
CC(C)CC(C1C(=O)CCCC1=O)C1C(=O)CCCC1=O | -3 | -3
COCCCN(Cc1ccsc1)Cc1ccc(C(O)(c2ccccc2)c2ccccc2)o1 | -4 | 3
COc1cc(Nc2ccc3c(C4CC4)noc3n2)cc(OC)c1 | 6 | 5
O=S1(=O)CCC(=NNc2ccc(C(F)(F)F)cn2)c2cc(F)ccc21 | -3 | -2
Cc1cc(C)n(-c2ccc(Cl)c(Cl)c2)n1 | 3 | 2

# Reformatted: 18 of the compounds above
# Results follow in this order: NPYLR7 ag	NPYLR7 ag max-min
> CCOC(=O)N(C)c1c(CC)nc2ccc(C(=O)NCc3ccc(OC)cc3)cn12
 : 21	17
> O=C(O)CCC(=O)Nc1nc2ccccc2s1
 : -28	-27
> O=c1c2nnn(-c3cccc(Cl)c3)c2ncn1Cc1ccc(F)cc1
 : 8	11
> Cc1cc2c(SCc3nc4ccccc4[nH]3)ncnc2s1
 : -1	-4
> Cc1nc(SCC(N)=O)c2oc3ccccc3c2n1
 : 4	0
> Cc1nnnn1Cc1ccc(C(=O)N2CCCC(N)CC2)cc1 (configuration not stated)
 : 2	4
> Cc1nc(NC(=O)CN2CCOC(c3ccc(F)cc3)C2)sc1C (configuration not stated)
 : 2	-1
> O=C(NCc1ccco1)c1sc2cc(F)ccc2c1Cl
 : 2	-6
> CCc1[nH]n(-c2ccc(F)cc2)c(=O)c1C1=C([n+]2ccccc2)C(=O)N(c2cccc(C)c2)C1=O
 : 9	6
> CC(C)CNc1ncnc2c1nnn2C
 : 6	3
> O=C1c2ccc(F)cc2C(=O)N1Cc1ccno1
 : 0	19
> Cn1c(N)c(C(=O)COC(=O)CCC(=O)c2cccs2)c(=O)n(C)c1=O
 : 8	9
> CC(C)Nc1nc(Cl)nc(N2CCSCC2)n1
 : -6	-5
> CCC(NC(=O)Cn1nnc2ccccc2c1=O)c1nc(C)c(C)s1 (configuration not stated)
 : 2	-1
> CC(C)CC(C1C(=O)CCCC1=O)C1C(=O)CCCC1=O
 : -3	-3
> COCCCN(Cc1ccsc1)Cc1ccc(C(O)(c2ccccc2)c2ccccc2)o1
 : -4	3
> COc1cc(Nc2ccc3c(C4CC4)noc3n2)cc(OC)c1
 : 6	5
> O=S1(=O)CCC(=NNc2ccc(C(F)(F)F)cn2)c2cc(F)ccc21
 : -3	-2

# Next section.
Compound | NPYLR7 ag | NPYLR7 ag max-min
N#CC1C(=O)NC(c2ccc(-c3ccccc3[N+](=O)[O-])o2)N(c2ccccc2)C1=S (configuration not stated) | -1 | -3
OC(COc1ccccc1F)Cn1cnc2ccccc21 (configuration not stated) | -2 | -3
COc1cccc(CN2CCN(C(=O)CCC3(Cc4cccs4)CCC(=O)N3)CC2=O)c1 (configuration not stated) | -3 | -8
Cc1cc(N2CCN(c3ccc(O)cc3)CC2)nc(-n2cc([N+](=O)[O-])cn2)n1 | 5 | 4
O=C(CN1CCN(C(=O)c2cc(C3CC3)nn2-c2ccccc2)CC1)Nc1cccc(F)c1 | 13 | 8
Cc1ccc2nc(CSc3nncn3-c3ccccc3C)cn2c1 | 0 | -3
CCOC(=O)c1ccc(NC(=O)C2CC(=O)N(C)C(=Nc3ccccc3OC)S2)cc1 (configuration not stated) | -2 | -4
COCCCN(Cc1nc2sc3c(c2c(=O)[nH]1)CCCC3)CC(O)CN1CCOCC1 (configuration not stated) | 4 | 4
Cc1ccc(C)c(CN(Cc2ccc3c(c2)OCO3)CC(O)Cc2ccccc2)c1 (configuration not stated) | 30 | 33
CCOC(=O)c1nn(CCc2ccccc2)c2c1CN(C(=O)c1csc(SC)n1)CC2 | 11 | -3
CCC1CN(Cc2cnc(-c3ccco3)nc2)CCN1C(C)C (configuration not stated) | 0 | -2
Cc1cc(F)cc(-c2c(-c3ccccc3)ncn2CCCO)c1 | 6 | -1
COc1ccc(/C=C2/SC(N)=NC2=O)c(OC)c1 | -3 | -8
O=C(c1cc(-c2cccs2)nc2ccccc12)N1CCOCC1 | 5 | 4
CCN(CC)C1=C(c2[nH]c(C)c(C(C)=O)c2C)Cn2c1nc1sc(C)c(C)c1c2=O | 28 | 19
Oc1cccc(-c2nccn2CCCOc2cccnc2)c1 | 6 | 3
COc1cc2c(c(CO)c1OC)CC1c3c(cc4c(c3OC)OCO4)CCN1C2 (configuration not stated) | 12 | 8
N#Cc1ccccc1-c1ccc(CSCc2nc(N)nc(N)n2)cc1 | 0 | -1
COc1ccc(CN(C)C(=O)C2CC(=O)N(CC(C)C)C2)cc1O (configuration not stated) | 6 | 4
O=S(=O)(Oc1ccccc1-c1nc2ccc(Br)cn2c1NCc1ccccc1)c1ccccc1 | 16 | 20
CSc1c(C(C)C)cnc2c1c(=O)n(C)c(=O)n2C | 1 | 11
Cc1ccc(CN2CCCC(CCN)C2)cc1C (configuration not stated) | 1 | 1
CC(C)(C)OC(=O)NCC(C)(NC(=O)Nc1ccncc1)C1CC1 (configuration not stated) | -1 | -3
CN1CCN(c2nccnc2-c2ccc(Cl)cc2)CC1 | 1 | -5
COCC(=O)Nc1ccc(N(C)C)c(CN(C(=O)c2ccc(OC)cc2)C(C)c2ccccc2)c1 (configuration not stated) | 26 | 33
COc1cccc(-c2noc(CCN(CC(O)COCc3ccco3)C3CCCCC3)n2)c1 (configuration not stated) | 17 | 29
O=C(c1ccccc1)c1ccc2c3c(cccc13)C(=O)N(c1cccc(C(F)(F)F)c1)C2=O | -9 | -17
O=C(c1ccc(-c2ccc[nH]2)nc1)N1CCC(CCc2ccccc2)CC1 | 0 | -5
CNC(=O)[C@H]1CN(C(=O)N(C)C)[C@]2(C)C(=O)N(CC3CC3)c3ccccc3[C@H]12 | -10 | -1
CC1CCN(c2nc(N)nc3nc[nH]c23)CC(C)(C)C1 (configuration not stated) | 1 | 0
CC(C)c1nnc(CN(Cc2cscn2)c2ccccc2)o1 | 5 | 4
Cc1cccc(-c2noc(C3CCN(C(=O)C(C)Oc4ccccc4)CC3)n2)c1 (configuration not stated) | -5 | -8
CSc1ccc(C(=O)N(C)CCCc2nc3ccccc3[nH]2)o1 | 0 | 18
NC(=O)CCCCCn1c(SCC(=O)Nc2cc(Cl)cc(Cl)c2)nc2ccccc2c1=O | -7 | 8
Cc1cc(C)n(-c2ccc(CNC(=O)CC3C=CCC3)cn2)n1 (configuration not stated) | -8 | -7
CCC(C)N1CN2C(=O)NC3C2N(C1)C(=O)N3C(C)(C)C (configuration not stated) | -2 | -6
O=C1NC(O)(C(F)(F)F)C(=O)N1C1CCCCC1 (configuration not stated) | 0 | 0
CCOC(=O)COn1c(=O)c(-c2cc3ccccc3o2)[n+]([O-])c2ccccc21 | 7 | -4
Cc1cnc2c(C(=O)NC(c3ccncc3)c3ccccc3C)cnn2c1 (configuration not stated) | 2 | -1
COc1ccc(-c2csc(-n3[nH]c(-c4ccccc4)c(N=Nc4c(C)cc(C)cc4C)c3=O)n2)cc1 | -4 | -10

# Compound profiles, from the list above. Screens in order: NPYLR7 ag, NPYLR7 ag max-min
# COc1ccc(CN(C)C(=O)C2CC(=O)N(CC(C)C)C2)cc1O (configuration not stated) is listed as 6, 4
# O=C1NC(=O)C2C1C1c3ccccc3C2([N+](=O)[O-])c2ccccc21 (configuration not stated) is listed as -17, -21

# Further records.
Compound | NPYLR7 ag | NPYLR7 ag max-min
COc1cc2c(cc1OC)C(c1ccc(F)cc1)N(C(=O)c1c(OC)cccc1OC)CC2 (configuration not stated) | 20 | 11
COc1cccc(Cn2c(=O)c(C(=O)N(C)C3CCCCC3)nn(-c3ccc(Cl)cc3)c2=O)c1 | 4 | 12
Cc1n[nH]c(C)c1CCc1nnc(SCC(=O)O)n1C | -4 | -5
CN1CCC(NC(=O)c2cn(-c3ccccc3Cl)nn2)C1=O (configuration not stated) | 10 | 8
CCSc1nc(NC(C)C)c2cnn(CCNC(=O)C3CCCCC3)c2n1 | -6 | -8
Cc1cc(-c2ccc(CC(=O)Nc3ccc(-c4cccnc4)cc3)cc2)ccn1 | 7 | -4
CCN(C(=O)Nc1ccccc1CS(C)(=O)=O)C1CCCC1 | 5&-1 | 1&-4
N#Cc1cccc(C(=O)NC(CN2CCOCC2)c2ccccc2)c1 (configuration not stated) | 1 | -1
Cc1nnc(SCCCNC(=O)C2CCOC2)s1 (configuration not stated) | 8 | 5

# Assay outcomes (PubChem)
